RE007 growth inh: less growth of the S. pombe RE007 Vpr strain. S. pombe RE007 Vpr strain, BacTiter-Glo ATP luminescence, 24 h; control for the full effect not named in the record. Potency, µM (series often up to 92.2 µM), without a hit: at the top dose activity change, negative = less growth. hit rate 0.21% among 360,000. AID 651644; active = well fitted falling curve with a large enough effect; inconclusive = small, poorly fitted or top-dose-only effect; inactive = no such curve, though single readings can be large or run the other way;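 note: % is set by controls: 0 for no effect and ±100 for the full control effect; nearly all actives have a fitted effect of over 50% in size; the assay follows cell death caused by Vpr and the record does not say whether a fall means rescue or toxicity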
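Fission yeast RE007 carrying one integrated HIV-1 vpr copy, seeded at OD 0.01 in PMG+AL medium with 23 nL pinned compound. Grown 24 h at 30 degrees; viability read by BacTiter-Glo luminescence after 5 min.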
Cruzain noTriton: cruzain (T. cruzi) inhibition without detergent; purified cruzain, Z-FR-AMC fluorescence, no detergent; P25779; hit rate 2.3% among 200,000; Potency, µM, for the others: max response, negative = inhibition, most hits filed as inhibitors;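 note: plate controls were enzyme without inhibitor for no effect and buffer without enzyme for full effect; nearly all actives have a fitted effect of over 40% in size; top concentration of the series not given in the record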
Target sequence (P25779 123-467 limits assumed): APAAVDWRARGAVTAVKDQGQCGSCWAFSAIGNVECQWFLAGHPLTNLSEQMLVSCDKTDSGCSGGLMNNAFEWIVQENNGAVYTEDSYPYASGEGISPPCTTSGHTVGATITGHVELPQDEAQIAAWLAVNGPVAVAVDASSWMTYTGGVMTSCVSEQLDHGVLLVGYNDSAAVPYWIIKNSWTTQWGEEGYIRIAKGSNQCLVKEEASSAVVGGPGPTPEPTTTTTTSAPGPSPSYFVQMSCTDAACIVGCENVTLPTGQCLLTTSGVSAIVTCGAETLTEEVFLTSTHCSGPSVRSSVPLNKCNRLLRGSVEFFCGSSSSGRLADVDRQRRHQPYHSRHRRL
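Purified cruzain at 1.5 nM, pre-incubated 15 min with compound at room temperature in 100 mM sodium acetate pH 5.5, 5 mM DTT, 0.00005% Triton X-100. Reaction started with 2 uM Z-FR-AMC; AMC fluorescence increase over 60 s gives rate.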
MARV entry inh: inhibitors of Marburg virus binding or cell entry; Marburg virus pseudotyped entry inhibition, cell reporter; control for the full effect not named in the record; about a third of the inactives were read at about 46 µM; hit rate 1.8% among 300,000; Potency, µM (titrated, usually from 37.8 µM), inactives show at the top dose activity change, negative = inhibition, most hits filed as inhibitors; active = well fitted inhibition curve with a large enough effect; inconclusive = small, poorly fitted or top-dose-only effect, or effect the other way; inactive = flat fitted curve, though single readings scatter; tested in HEK293 cells; about a fifth of its hits are not listed in these tables; note: % is set by controls: 0 for no effect and ±100 for the full control effect; luciferase read-out
Cruzain inh Det: blocks cruzain activity in presence of Triton detergent. purified cruzain, Z-FR-AMC fluorescence, 0.01% Triton. Potency, µM, for inactives: max response, negative = inhibition, hits mostly inhibitors. hit rate 0.43% among 200,000. AID 1478. P25779;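 note: plate controls were neutral wells for no effect and buffer without enzyme for full effect; nearly all actives have a fitted effect of over 40% in size; top concentration of the series not given in the record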
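Enzyme 1.5 nM, Z-FR-AMC 2 uM, NaOAc 100 mM pH 5.5, DTT 5 mM, Triton X-100 0.01%; 15 min RT compound preincubation; kinetic ex360/em450, 60 s delta.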
SARS PLP yeast: SARS-CoV PLP inhibition in yeast; S. cerevisiae expressing SARS-CoV PLpro, growth rescue; control for the full effect not named in the record; hit rate 0.19% among 330,000; Potency, µM (series often up to 32.9 µM), without a hit: top-dose activity, positive = growth rescue; AID 485353; active means well fitted rising curve with a large enough effect; inconclusive means small, poorly fitted or top-dose-only effect; inactive means no such curve, though single readings can be large or run the other way; note: 0% is about no effect; nearly all actives have a fitted effect of over 55% in size; growth read by luminescence after 48 h
2A StopGo: lowers the luciferase signal of an FMDV 2A StopGo reporter; human cells with a luciferase reporter of 2A StopGo recoding; control for the full effect not named in the record; Potency, µM (series often up to 57.9 µM), without a hit: at the top dose signal change, negative = less light; hit rate 1.2% among 410,000; active = well fitted falling curve with a large enough effect; inconclusive = small, poorly fitted or top-dose-only effect; inactive = no such curve, though single readings can be large or run the other way; tested in HEK293T cells; note: % is set by controls: 0 for no effect and ±100 for the full control effect; nearly all actives have a fitted effect of over 45% in size; luciferase light after 4 h
NS1 function inh: blocks influenza NS1 protein function | S. cerevisiae slowed by influenza A NS1, growth recovery by OD600 | Potency, µM (series often up to 46.1 µM), inactives show at the highest dose activity, positive = more growth | hit rate 0.4% among 270,000 | AID 2326; active means well fitted rising curve with a large enough effect; inconclusive means small, poorly fitted or top-dose-only effect; inactive means no such curve, though single readings can be large or run the other way; note: nearly all actives have a fitted effect of over 50% in size
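OD600 was taken as the measure of yeast growth restored by compound in an NS1-expressing S. cerevisiae strain. Cells had been washed out of glucose medium and diluted 1:100 into galactose -URA medium, pH 6.0.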
LASV entry inh: Lassa virus entry inhibition | Lassa virus pseudotype entry inhibition, cell reporter; control for the full effect not named in the record | Potency, µM (doses to about 37.9 µM), for the others: top-dose activity change, negative = inhibition, usual class: inhibitors | hit rate 1.2% among 300,000; active means well fitted inhibition curve with a large enough effect; inconclusive means small, poorly fitted or top-dose-only effect, or effect the other way; inactive means flat fitted curve, though single readings scatter; tested in HEK293 cells; note: % is set by controls: 0 for no effect and ±100 for the full control effect; nearly all actives have a fitted effect of over 50% in size; luciferase read-out
Numbers without * were called inactive; ? = inconclusive; · = no result given; & = joins results of further samples; [ ] = another dose, or the depositor's remark. Unless noted, calls come from the whole dose curve; as a rule, active = well fitted curve in the direction sought with a large enough effect; inconclusive = small, poorly fitted or top-dose-only effect, or another doubt; inactive = no such curve, though single readings can be large; an effect the other way counts as inactive or inconclusive. Potency is the fitted concentration of half-maximal effect.

SMILES	RE007 growth inh	Cruzain noTriton	MARV entry inh	Cruzain inh Det	SARS PLP yeast	2A StopGo	NS1 function inh	LASV entry inh
COc1ccccc1NS(=O)(=O)c1ccc(Cl)c(NC(=S)NC(=O)C2CCCC2)c1	6%	?	?	-13%	-8%	0%	13µM*	-23%
CN1CCC(N(C)c2nc(-c3ccccc3)nc3ccccc23)CC1	-22%	1%	?	0.2%	-4%	·	-6%	4%
Cc1ccc(CN2CCN(/N=C/c3ccco3)CC2)c(C)c1	-12%	0%	-29%	-2.1%	-1%	9%	19%[9.22 µM]	-5%
COc1cc2sc(C)nc2c2ccccc12	-9%	·	·	·	-4%	-14%	-4%	·
COC(=O)C1=C(C)N=C2SC(C)C(=O)N2C1c1cccs1 (configuration not stated)	-9%	5%	6%	-2.1%	-8%	-15%	21%	-24%
O=C(NCCc1c[nH]c2ccccc12)c1ccc(-n2cnnn2)cc1	9%	-9%	12%[46.1 µM]	-5.5%	5%	0%	2%	-2%
Cc1c(Br)c([N+](=O)[O-])nn1CCCC(=O)Nc1sc2c(c1C#N)CCC2	-5%	1%	-25%	-16%	5%	-22%	2%	13%
Fc1ccc(N2CCN(Cc3cccn3-c3nnc(N4CCN(C5CCCCC5)CC4)s3)CC2)cc1	·	8%	·	-5.8%	·	0%	·	7%[46.1 µM]
COC(=O)Nc1sc2nc(C)cc(C)c2c1-n1cccc1	-17%	-1%	-18%	-6.0%	-8%	?	0%	-17%
OCCC1CN(Cc2ccccc2-c2ccco2)CCN1Cc1ccsc1 (configuration not stated)	-14%	·	·	·	0%	-13%	20%	·
Cc1cc(SCC(=O)c2cc(C)n(C)c2C)nc2ccccc12	-4%	-9%	?	3.7%	13%	-8%	?	?
Cn1c(O)c(C(=NCCc2c[nH]c3ccccc23)c2ccccc2)c(=O)n(C)c1=O	5%	·	·	·	0%	-6%	-6%	·

Compound profiles, as listed above:
`Cc1c(Br)c([N+](=O)[O-])nn1CCCC(=O)Nc1sc2c(c1C#N)CCC2` across the screens: RE007 growth inh = -5%; Cruzain noTriton = 1%; MARV entry inh = -25%; Cruzain inh Det = -16%; SARS PLP yeast = 5%; 2A StopGo = -22%; NS1 function inh = 2%; LASV entry inh = 13%
`COc1cc2sc(C)nc2c2ccccc12` across the screens: RE007 growth inh = -9%; Cruzain noTriton = ·; MARV entry inh = ·; Cruzain inh Det = ·; SARS PLP yeast = -4%; 2A StopGo = -14%; NS1 function inh = -4%; LASV entry inh = ·

The main list resumes; the two compounds before the break are reprinted first.
SMILES	RE007 growth inh	Cruzain noTriton	MARV entry inh	Cruzain inh Det	SARS PLP yeast	2A StopGo	NS1 function inh	LASV entry inh
Cc1cc(SCC(=O)c2cc(C)n(C)c2C)nc2ccccc12	-4%	-9%	?	3.7%	13%	-8%	?	?
Cn1c(O)c(C(=NCCc2c[nH]c3ccccc23)c2ccccc2)c(=O)n(C)c1=O	5%	·	·	·	0%	-6%	-6%	·
Cc1cccc(CCNS(=O)(=O)c2cc3c(cc2C)NC(=O)CO3)c1	15%	·	·	·	-3%	8%	14%	·
Cc1ccc(NS(=O)(=O)c2ccc3c4c(cccc24)C(=O)N3)c(C)c1	·	3%	·	0.2%	·	0%	·	-11%[46.1 µM]
Cn1nc(-c2ccccc2)cc1NC(=O)C1CCCCC1	3%	·	·	·	-1%	51%[activator]	3%	·
CC(=O)Nc1ccc(NC(=O)C(C)OC(=O)CN(C)S(=O)(=O)c2ccc(Cl)cc2)cc1 (configuration not stated)	2%	-15%	4%[46.1 µM]	0.2%	14%	4%	-3%	8%
CC(Oc1ccc(Cl)cc1Cl)C(=O)N/N=C1\CCCc2ccccc21 (configuration not stated)	-3%	1%	-6%	-4.4%	7%	-3%	3%	4%
CC1CCN(C(=S)SCc2nc(N)nc(Nc3ccccc3)n2)CC1	5%	·	·	·	0%	28%	-3%	·
O=C(NNC(=S)NC(=O)c1ccccc1[N+](=O)[O-])c1ccccc1O	-5%	·	?	·	5%	4%	-1%	?
CCCCCCCCn1c(=O)c(C(=O)OC)c(N)c2ccccc21	0%	·	?	·	-4%	?	-81%	?
O=C(c1cc2ncc(Br)cn2n1)N1CCN(C(=O)c2ccco2)CC1	1%	-8%	0%	-2.7%	1%	-13%	0%	1%
Cc1cc(C)n2nc(CC(=O)NNC(=O)COc3cccc(C)c3C)nc2n1	3%	·	·	·	13%	-5%	-8%	·
Cc1ccc2[nH]c(=O)c(CN(CC3COCCO3)C(=O)Nc3ccccc3F)cc2c1 (configuration not stated)	-9%	·	0%[46.1 µM]	·	1%	-30%	-1%	·
O=C(CN1C(=O)COc2ccccc21)N1CCCc2ccccc21	9%	2%	6%	-0.4%	0%	12%	-1%	-13%[14.3 µM]
Cc1ccc(S(C)(=O)=O)cc1S(=O)(=O)Nc1cccc(Cl)c1	5%	-4%	0%	0.4%	11%	64%[activator]	14%	-6%
CN(CCC1CCOCC1)C(=O)CC1C(=O)NCCN1CC1CCCCC1 (configuration not stated)	-7%	·	-2%[46.1 µM]	·	-2%	-9%	4%	-29%
CCOC(=O)C1CN(S(=O)(=O)c2ccccc2)CCN1S(=O)(=O)c1ccccc1 (configuration not stated)	0%	-4%	-1%	-2.5%	-1%	-15%	-5%	-20%
Cc1ccc(-c2nc3nc(C)cc(N4CCN(c5cccc(C)c5)C(C)C4)n3n2)cc1 (configuration not stated)	·	6%	27%[46.1 µM]	-2.0%	·	-5%	·	17%[46.1 µM]
CCOc1ccc(-c2cc(C(=O)Nc3ccc(NC(C)=O)cc3)no2)cc1	·	-4%	8%[46.1 µM]	-1.0%	·	3%	·	9%[46.1 µM]
CCn1c(C)nnc1SCC(=O)NC1CCCCCC1	0%	·	-5%[46.1 µM]	·	·	-8%	13%	-5%[46.1 µM]
Fc1ccc(N2CCN(c3nc4ccccc4c4nc(-c5ccccc5)nn34)CC2)cc1	·	-9%	3%[46.1 µM]	1.3%	·	-5%	·	·
S=C(NCc1ccc(Cl)cc1)Nc1ccncc1	3%	·	·	·	2%	6%	-2%	·
CCN(CC(=O)c1c(N)n(C)c(=O)n(C)c1=O)c1cccc2ccccc12	5%	-4%	1%	-6.8%	-3%	?	-36%	-6%
COc1ccc(CCNC(=O)c2cc3c(=O)n4cccc(C)c4nc3n(Cc3ccncc3)c2=N)cc1	·	13%	·	0.9%	-2%	·	-1%	·
CCOc1ccc(N(CC(=O)Nc2cccnc2)S(=O)(=O)c2ccc(C)cc2)cc1	-10%	·	?	·	-6%	16%	·	?
Cc1ccc(NC(=O)CNC(=O)CC23CC4CC(CC(C4)C2)C3)c(O)c1	-18%	·	?	·	-2%	-3%	·	-6%
O=C1CCC(/C=C/c2ccccc2)=NN1	7%	·	-1%[46.1 µM]	·	-3%	31%[activator]	·	-11%
O=C(N/N=C/c1ccccn1)c1ccc([N+](=O)[O-])cc1Cl	-5%	·	·	·	5%	24%	6%	·
Cc1cc(Cl)ccc1OCC(=O)N(Cc1cccs1)C1CCS(=O)(=O)C1 (configuration not stated)	3%	·	?	·	1%	-26%	9%	-25%
CC(C)OC(=O)c1ccc(NC(=O)c2cncc(Br)c2)cc1	3%	·	24%[46.1 µM]	·	-1%	-22%	-6%	-20%
CN1CCN(c2ccc(NC(=O)c3cc(Cl)c4c(c3)OCCO4)cc2)CC1	10%	·	-15%[46.1 µM]	·	1%	7%	·	?
O=C(NCCc1ccccn1)c1cc(-c2ccc(Cl)c(Cl)c2Cl)nc2ccccc12	8%	30%	?	-6.1%	-13%	40µM*	-31%	?
CCCCCOC(=O)CSc1nnc(-c2ccccc2)c(=O)[nH]1	4%	-6%	-1%	5.6%	5%	·	?	12%
N#Cc1c(N)nc(Sc2ccc(Cl)cc2)c(C#N)c1-c1ccccc1Cl	5%	·	?	·	1%	28µM*	6%	?
Cc1ccc(S(=O)(=O)N(C)c2ccc(OCC(=O)Nc3nnc(C4CC4)s3)cc2)cc1	-2%	·	?	·	1%	-22%	·	-21%[46.1 µM]
CN(C)CCn1c(SCc2ccccc2C#N)nc2c(sc3ccccc32)c1=O	-17%	·	·	·	-3%	-11%	-5%	·
COC(=O)C1CCN(C(=O)CSc2nnc(-c3ccccc3)o2)CC1	-21%	·	11%	·	-3%	-10%	·	-8%
O=C(CSc1nccn1-c1ccc(Cl)cc1)N1CCCc2ccccc21	-14%	9%	?	-6.5%	-15%	?	-67%	3%
COc1cccc(CN(C)CC(=O)Nc2cc(S(=O)(=O)N3CCCC3)ccc2Cl)c1OC	-3%	·	?	·	3%	?	·	?
COc1cc(Cn2nnc3ccccc32)ccc1O	5%	·	·	·	2%	-13%	7%	·
CCOC(=O)Nc1ccc2c(c1)N(C(=O)CCN1CCOCC1)c1ccccc1S2=O (configuration not stated)	-2%	2%	?	2.0%	-2%	?	-13%	-6%
Nc1nc(NC(=O)c2ccco2)nn1-c1ccccc1	2%	-5%	?	2.6%	3%	·	-2%	15%
Cc1ccc(Cl)cc1N1CCN(C(=O)CNC(=O)c2ccc(Br)o2)CC1	11%	·	-39%	·	3%	-25%	·	-11%
C/C(=N\Nc1ccc2nncn2n1)c1ccco1	-13%	·	?	·	0%	25%	4%	-1%
CN(C1CCCCC1)S(=O)(=O)c1ccc(NC(=O)c2ccc(Br)o2)cc1	16%	5%	-13%&-13%	-5.1%	-26%	-23%	-2%	11µM*
NC(=O)Cc1cn(-c2ncc(C(F)(F)F)cc2Cl)c2ccccc12	-17%	3%	16%	-4.0%	-7%	-13%	-2%	-8%
Cc1ccc(NC(=O)Nc2cccs2)nc1	-15%	5%	?	0.7%	1%	50%[activator]	8%	29%
CCN(CC)CC#CCC(O)(c1ccccc1)c1ccccc1	-4%	·	?	·	0%	-16%	-2%	-28%
CNC(=O)CSc1nnc(NC(=O)C2CC(=O)N(c3ccccc3OC)C2)s1 (configuration not stated)	-2%	·	21%	·	2%	-2%	3%	-4%
COc1ccc(/C=N/Nc2nnc(Cc3ccc(OC)c(OC)c3)c(=O)[nH]2)cc1OC	3%	-10%	-47%	0.0%	6%	23%	23%	?

Screening data from PubChem.
